# A488 autofl = compound autofluorescence in A488 spectral region | compound autofluorescence, A488 spectral region, dye equivalency; active compounds read high | max dye equivalency, M | 59,000 compounds, 0.1% hits | AID 591; active = above 10 nM dye equivalent; inconclusive = 1 to 10 nM; inactive = 1 nM or less; about half of its hits are not listed in these tables;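 further: highest value over a series up to 38 µM; compound alone in buffer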
#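 Readout is A488 dye-equivalent concentration, calibrated by a per-plate six-point Alexa 488 series. Compounds in 100 mM Tris buffer pH 8.0 were incubated 15 min at room temperature. Plates were imaged using 480 nm excitation/540 nm emission filters.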
# TSHR ag = TSH receptor (human) agonism; HEK293-CNG-TSHR cells (CNG channel as cAMP sensor), membrane potential dye, cAMP; Potency, µM (titrated, usually from 57.1 µM), without a hit: at the highest dose activation, usual class: activators; 73,000 compounds, 0.48% hits; AID 926; active = well fitted activation curve of enough size with the parental cells flat; inconclusive = any curve in the parental cells; inactive = parental cells flat and receptor cells flat or falling; further: potency means the concentration at half of the fitted maximal effect; % of control where 0% means no effect; weak receptor curves with flat parental cells got no call and are not listed
# Target sequence (P16473 whole entry, looked up): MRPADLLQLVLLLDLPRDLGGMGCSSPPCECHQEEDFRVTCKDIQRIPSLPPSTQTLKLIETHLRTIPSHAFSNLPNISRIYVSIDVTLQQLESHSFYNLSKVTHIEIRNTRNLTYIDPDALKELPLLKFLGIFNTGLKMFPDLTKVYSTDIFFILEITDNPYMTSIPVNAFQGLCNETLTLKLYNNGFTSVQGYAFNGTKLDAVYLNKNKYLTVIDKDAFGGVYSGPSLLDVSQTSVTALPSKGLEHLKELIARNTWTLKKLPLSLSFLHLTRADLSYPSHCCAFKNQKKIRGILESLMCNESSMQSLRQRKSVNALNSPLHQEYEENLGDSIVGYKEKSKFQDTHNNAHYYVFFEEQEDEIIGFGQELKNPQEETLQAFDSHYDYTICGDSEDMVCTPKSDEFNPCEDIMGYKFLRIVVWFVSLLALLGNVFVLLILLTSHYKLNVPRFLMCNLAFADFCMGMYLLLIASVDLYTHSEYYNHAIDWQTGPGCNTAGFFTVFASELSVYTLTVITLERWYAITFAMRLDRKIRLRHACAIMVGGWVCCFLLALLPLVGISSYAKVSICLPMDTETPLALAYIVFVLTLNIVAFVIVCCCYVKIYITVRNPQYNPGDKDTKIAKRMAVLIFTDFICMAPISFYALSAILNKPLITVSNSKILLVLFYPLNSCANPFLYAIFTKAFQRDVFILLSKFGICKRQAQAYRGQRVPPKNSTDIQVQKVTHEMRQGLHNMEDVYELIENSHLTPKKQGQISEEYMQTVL
#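 HEK 293 cells stably expressing TSHR and a modified CNG channel, with CNG-only parental cells as counterscreen, were preloaded 60 min at room temperature with membrane potential dye containing 100 uM RO 20-1724. Compound exposure was 30 min, and depolarization was read as fluorescence at 590 nm.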
# AID923 = qHTS Assay for Allosteric/Competitive Inhibitors of Caspase-1: Spectroscopic Profiling in AFC Spectral Region. compound fluorescence, AFC spectral region (405/520 nm); almost no hit is shown here. Potency, µM (top dose mostly 57.5 µM), for inactives: at the highest dose fluorescence increase, usual class: activators. 75,000 compounds, 1.1% hits; active means well fitted activation curve with a large enough effect; inconclusive means small, poorly fitted or top-dose-only effect;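 further: potency means the concentration at half of the fitted maximal effect; 0% is about no effect; scaled to a free AFC standard on each plate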
#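 Baseline compound fluorescence (AFC region, 405 nm ex/520 nm em) taken from the intercept of kinetic reads with 50 nM caspase-1 and 5 uM Ac-WEHD-AFC; normalized to an on-plate AFC standard curve; compounds titrated up to 57 uM.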
# A647 fluor = A647 region autofluorescence; max dye-equivalent concentration, M; 59,000 tested, under 10 active; Compound fluorescence, A647 channel (570/671 nm), Tris buffer; active means above 1 µM dye equivalent; inconclusive means 0.1 to 1 µM; inactive means 0.1 µM or less;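 further: values scaled relative to a standard on each plate; highest value over a series up to 38 µM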
#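 Buffer was dispensed, compounds and Alexa 647 standards were pin-transferred, and plates sat 15 min at room temperature. Intensity at 570/671 nm was then converted to dye-equivalent concentration using the plate's A647 standard curve.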
# Resorufin autofl = compound fluoresces in the resorufin spectral region. Compound fluorescence, resorufin region 547/598 nm, buffer; active compounds read high. max dye-equivalent concentration, M. 59,000 compounds, 0.04% hits; active = above 10 nM dye equivalent; inconclusive = 1 to 10 nM; inactive = 1 nM or less; a few of its hits are not listed in these tables; further: highest value over a series up to 38 µM
#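 Read-out: intrinsic compound fluorescence at ex 547/em 598 nm after 15 min at RT in pH 8.0 Tris (100 mM). Values expressed as resorufin-equivalent concentration from per-plate standard series.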
# Numbers without * were called inactive; i = inactive; ? = inconclusive; . = no result given; & = joins results of further samples; [ ] = remark or other dose. Only part of the results is shown, so the mix of outcomes need not match the whole.
# Value order: A488 autofl | TSHR ag | AID923 | A647 fluor | Resorufin autofl
COc1cc(C2C(C(C)=O)=C(O)C(=O)N2c2ccc(Br)cn2)ccc1O (centres undefined)
  i | . | . | 1e-09 | i
CCC(C)Sc1nc2c(cnn2-c2ccc(C)cc2)c(=O)[nH]1 (centres undefined)
  . | -5%[11.4 µM] | 0.6% | . | .
COc1ccc(NC(=O)c2cc(-c3ccc(OC)c(OC)c3)on2)cc1OC
  i | 2%[11.4 µM] | 4.1% | 8.6e-09 | i
CCO/C(C)=N/n1c2nc3ccccc3nc2c2c(=O)n(CC(C)C)c(C)nc21
  i | . | . | 1e-09 | i
CSC1=C(C#N)C(C)CC(=O)N1 (centres undefined)
  i | . | . | 8.2e-08 | i
COC(=O)c1ccc(NC(=O)c2ccco2)cc1
  . | 5% | 1.5% | . | .
C=C1c2ccc(C)cc2NC(=O)N1c1ccccc1
  . | 10% | 6.2% | . | .
CC(C)(C)NC(=O)C(c1ccc(I)cc1)N(CCN1CCOCC1)C(=O)CCCNC(=O)c1ccccc1 (centres undefined)
  . | ? | 1.4% | . | .
O=C(CSc1nnc(-c2ccco2)n1Cc1ccco1)NCc1cccs1
  i | ? | 0.1% | 3.7e-08 | i
Cc1ccc(N(CN2CCCC2=O)C(=O)c2ccc(C)c(C)c2)cc1
  i | 1% | -1.4% | 4.4e-08 | i
COc1ccc(O[C@H]2C=C[C@@H](c3ccccc3)O[C@H]2COC(=O)CC/C(C)=N\OC[C@@H](O)[C@H]2O[C@H]3OC(C)(C)O[C@H]3[C@@H]2O)cc1
  . | -4%[11.4 µM] | -0.9%[11.5 µM] | . | .
CO/N=C1/c2cc(OC)ccc2O[C@@H](c2cccc(OC)c2)[C@H]1O
  . | -3%[11.4 µM] | -0.9%[11.5 µM] | . | .
CCOC(=O)CSC1=C(C#N)C(c2ccccc2Cl)C(C(=O)OC)C(=O)N1 (centres undefined)
  . | -11% | -1.5% | . | .
O=C(N[C@@]1(C(=O)O)C[C@@H]1c1ccccc1)c1ccccc1
  i | 3%[11.4 µM] | 3.5%[11.5 µM] | 4.2e-08 | i
CSC1=C(C#N)C2(CCCCC2)C(C(=O)Nc2ccccc2)=C(C)N1
  . | -15% | 3.1% | . | .
Cc1ccc(S(=O)(=O)Nc2ccc3nc(N)sc3c2)cc1
  i | 13% | -2.0% | 3e-09 | i
Nc1nonc1-c1noc(N2CCOCC2)n1
  i | . | . | 4.5e-08 | i
Cc1ccc(/C=N/c2sc3c(c2C#N)CCC3)s1
  i | -6% | -0.7% | 1e-09 | i
CC(C)C[C@H](NC(=O)OC(C)(C)C)C(=O)N1CCC(C(=O)N[C@@H](Cc2ccccc2)C(=O)O)CC1
  i | 15% | 1.3% | 2.1e-08 | i
O=C(Cn1nc(-c2ccccc2F)ccc1=O)NCc1ccc2c(c1)OCO2
  i | 3% | -0.2% | 1e-09 | i
CCN(CC)CCCN1C(=O)C(=O)/C(=C(/O)c2ccc3c(c2)OCO3)C1c1ccccn1 (centres undefined)
  i | -13% | -1.8% | 5.6e-09 | i
CCCCOC(=O)Nc1cc(OC)c(Cl)cc1OC
  . | ? | 2.4% | . | .
O=C(Nc1ccc(C(=O)N2CCOCC2)cc1)Nc1cccc(Cl)c1
  i | -3% | 0.7% | 1.8e-08 | i
O=C(CC(=O)NCc1cccnc1)NCc1cccnc1
  i | 2% | 0.3% | 3e-08 | i
COc1ccc(CNC(=O)c2ccc3c(c2)N(C)C(=O)CS3=O)cc1 (centres undefined)
  . | 3% | 3.3% | . | .
Nc1nc2n(c1C(=O)c1ccccc1)CCC2
  i | 6% | -1.6% | 5.3e-08 | i
COc1cc(Br)cc(/C=N/c2ncn[nH]2)c1O
  . | 1%[11.4 µM] | 6.0% | . | .
CCN1C(=O)[C@H]2[C@H]3[C@H](O)[C@H](O)C/C(=N/O[C@@H](C)c4cn([C@H](CO)Cc5ccccc5)nn4)[C@@H]3CC[C@@H]2C1=O
  . | 4%&-2%[11.4 µM] | -1.0%&-2.2%[11.5 µM] | . | .
CCCC(c1nnnn1Cc1cccs1)N1CCN(c2ccc(OC)cc2)CC1 (centres undefined)
  i | ? | 0.5% | 7.7e-09 | i
COc1cccc([C@@H]2Oc3ccc(OC)cc3/C(=N/OC[C@@H](O)COCc3ccco3)[C@@H]2O)c1
  . | -2%[11.4 µM] | 0.6%[11.5 µM] | . | .
Cc1cnc(C(=O)N2CCN(S(=O)(=O)c3ccc4ccccc4c3)CC2)cn1
  i | 11% | 2.2% | 4.7e-09 | i
O=C1CN(C(=O)COC(=O)COc2ccc3c(c2)CCC3)c2ccccc2N1
  i | 22% | 1.4% | 2.1e-09 | i
Cc1cc(NC(=O)c2cc3ncc(Br)cn3n2)no1
  i | 8% | -0.1% | 5.4e-09 | i
COc1ccccc1NC1=NCC(=O)N1Cc1ccccc1
  i | . | 4.5% | 1.4e-08 | i
Cc1nn(-c2ccccc2)c(Cl)c1C(=O)N1CCN(c2ncnc3c2cnn3-c2ccccc2)CC1
  i | . | -1.0% | 1.1e-08 | i
COCC(=O)N1CCC[C@@]2(CCN(c3ccccc3)C2)C1
  i | 4% | 4.7% | 1.1e-09 | i
COCCn1c(SCc2nc3ccccc3s2)nc2ccccc21
  i | ? | 1.0% | 1.7e-08 | i
Cc1ccc(-n2c(=O)cc(N3CC(C)CC(C)C3)[nH]c2=O)cc1 (centres undefined)
  i | -3% | 0.4% | 3.1e-09 | i
CCO/C([O-])=N/c1c[n+](N2CCOCC2)no1
  i | -9%[25.6 µM] | -1.1% | 2e-08&2.6e-08&1e-09 | i
COC(=O)N1CCC[C@@]2(CCN(c3ccccc3)C2)C1
  i | ? | 3.6% | 3.5e-09 | i
COc1ccc(Cc2nnc(SCC(=O)N3CCN(c4ccccc4)CC3)o2)cc1
  i | 18% | -0.5% | 5.8e-09 | i
CC1(C)Cc2c(C#N)c(OCC(=O)c3ccc(Cl)cc3)nc(-c3ccoc3)c2CO1
  i | . | . | 1e-09 | i
O=S(=O)(c1ccc(S(=O)(=O)N2CCCC3(CCCCC3)C2)cc1)N1CCCCC1
  i | ? | 1.4% | 1e-09 | i
CCN(CC)C(=O)c1cn(C)c2ccc(S(=O)(=O)N(CC)CC)cc2c1=O
  i | 6% | 0.3% | 4.6e-08 | i
C1=C(CCNC2=NCCCCC2)CCCC1
  i | 1% | 1.3% | 4.6e-08 | i
Cc1c(NC(=O)c2ccccc2F)c(=O)n(-c2ccccc2)n1C
  i | 0% | -1.7% | 7.9e-09 | i
O=C(c1cnn2cccnc12)N1CCN(c2ccccc2)CC1
  i | -5% | 1.1% | 1e-09 | i
O=C(Cn1nc(Cl)nc1Cl)c1cc2ccccc2oc1=O
  i | ? | 4.0% | 5e-08 | i
O=C(O)COc1cccc(-c2ocnc2-c2nc(-c3ccccc3)c(-c3ccccc3)o2)c1
  . | 4% | -2.8% | . | .
CS(=O)(=O)N1CCCC(C(=O)NCCCN2CCC(Cc3ccccc3)CC2)C1 (centres undefined)
  i | 9% | 0.3% | 3.9e-09 | i
Oc1ccc(CN2CCCc3ccccc32)c2cccnc12
  i | 8%[11.4 µM] | -0.5% | 1e-09 | i
CCOc1ccc(Nc2c3c(nc4ncnn24)CC(C)CC3)cc1 (centres undefined)
  i | ? | -0.7% | 9e-09 | i
COCCNC(=O)c1c[nH]c2ccc(S(=O)(=O)N3CCC4(CC3)OCCO4)cc2c1=O
  i | 0% | -1.8% | 1e-09 | i
CCOc1ccc(-n2c(C)nc3c(cnn3-c3ccc(Cl)cc3)c2=O)cc1
  i | 9% | 0.8% | 7.5e-09 | i
CCOC(=O)c1nc(N)c(=O)n(-c2ccccc2)n1
  i | -3% | -1.2% | 1e-09 | i
O=S(O)O.O=S(O)O.[Co].[NH2-].[NH2-].[NH2-].[NH2-]
  i | 3%[11.4 µM] | 0.4%[11.5 µM] | 2.3e-09 | i
CC(C)Sc1nc(NCc2ccco2)c2c3c(sc2n1)COC(C)(C)C3
  i | 11% | -0.7% | 1e-09 | i
O=C(CSc1nc2ccccc2s1)N1CCOCC1
  i | 5% | 0.2% | 3e-08 | i
CC(=O)NCCNc1ncncc1-c1ccccc1C
  i | ? | -1.7% | 4.3e-08 | i
COc1cccc(CNc2ccc(Br)cn2)c1O
  i | . | . | 2.6e-09 | i

# More structures follow:
# Value order: A488 autofl | TSHR ag | AID923 | A647 fluor | Resorufin autofl
O=C(CN1CCOCC1)OCCCC1CCCCC1
  i | 0% | 1.6% | 1.1e-08 | i
CCOC(=O)C1C(c2ccc3c(c2)OCO3)NC(=O)NC1(O)C(F)(F)F (centres undefined)
  i | 4% | -0.9% | 1e-09 | i
CC1Cc2nc(SCC(=O)NCc3ccco3)n(Cc3ccccc3)c(=O)c2S1 (centres undefined)
  . | ? | -0.6% | . | .
CCOC(=O)c1c(C)n(C)c2ccc(OC)c(NC(=O)CN3CCCCC3)c12
  i | . | . | 1.5e-08 | i
Cn1c(SCC(=O)Nc2nccs2)nnc1-c1ccncc1
  i | -2%[11.4 µM] | -0.7% | 1.3e-08 | i
CCOc1cc(S(=O)(=O)NC2CCCC2)ccc1Cl
  i | 1% | 1.2% | 2.2e-09 | i
COc1cc(NC(=O)CSc2nnc3n2C(C)(C)Cc2ccccc2-3)cc(OC)c1
  i | ? | -0.2% | 2.5e-08 | i
O=C(OCN1C(=O)c2ccccc2C1=O)C1CCCCC1
  . | 15% | 0.0% | . | .
O=C(c1ccco1)N(Cc1cccs1)C1CCS(=O)(=O)C1 (centres undefined)
  i | ? | 1.5% | 9.4e-09 | i
COc1ccc(NC(=O)CCCC2=NS(=O)(=O)c3ccccc3N2)cc1
  . | -10% | 4.3% | . | .
Cc1cnc(CNc2nc(-c3cccc(NS(C)(=O)=O)c3)nc3ccccc23)cn1
  i | 10% | 1.1% | 1e-09 | i
O=S1(=O)NC(=NC2CCCCCC2)c2ccccc21
  i | 8% | -0.8% | 3.5e-08 | i
COC(=O)N1CCC2(CC1)CN(C(=O)Nc1ccccc1)C2
  i | 2% | 1.2% | 2.9e-09 | i
CN(C)CCN(Cc1ccccc1)c1ccnc(N(C)C)c1C#N
  . | 6% | -2.6% | . | .
COc1cc2c(cc1OC)C(COc1ccc3c(C)cc(=O)oc3c1)N(C(=O)c1ccco1)CC2 (centres undefined)
  i | . | -0.7% | 1e-09 | i
COc1cccc(-c2noc(-c3cccs3)n2)c1
  i | 17% | 0.0% | 1e-09 | i
CS(=O)(=O)Nc1ccc2c(c1)C(=O)OC2
  i | -2% | -0.4% | 1e-09 | i
N#CCCn1c(-c2nonc2NC(=O)c2ccccc2Cl)nc2ccccc21
  i | ? | -0.2% | 2.8e-08 | i
Cc1ccc(C)c(Cn2nnc3c(=O)[nH]c(C(=O)NCc4ccco4)nc32)c1
  i | 10% | 1.5% | 3.7e-08 | i
Cc1cc(C)nc(NS(=O)(=O)c2ccc(N)cc2)n1
  i | -4% | -1.3% | 1e-09&5.7e-09 | i
CN1C(=O)c2oc3ccc(Br)cc3c(=O)c2C1c1ccncc1 (centres undefined)
  i | ? | 1.2% | 1.6e-08 | i
COc1ccc(-c2cn3cccnc3n2)cc1NC(=O)CC(C)C
  i | -3% | 2.3% | 2.8e-08 | i
COc1ccc(C2=Nn3c(nnc3-c3ccccc3OC)SC2)cc1OC
  i | 10µM* | -0.7% | 2.8e-08 | i
CN(C)c1cc(-c2cccc(NS(C)(=O)=O)c2)ncn1
  i | ? | 0.4% | 3.4e-08 | i
Cc1nc2cccc(C(=O)NC3CCCCC3)c2o1
  i | 0% | 1.2% | 1e-09 | i

# One compound at a time (already shown). Screens in order: A488 autofl, TSHR ag, AID923, A647 fluor, Resorufin autofl
# `COc1ccc(C2=Nn3c(nnc3-c3ccccc3OC)SC2)cc1OC` as listed: i, 10µM*, -0.7%, 2.8e-08, i
# `COc1ccc(-c2cn3cccnc3n2)cc1NC(=O)CC(C)C` as listed: i, -3%, 2.3%, 2.8e-08, i

# Assay outcomes from PubChem.
